Screens: PubChem BioAssay, National Center for Advancing Translational Sciences (NCATS)
Cruzain Triton = blocks cruzain activity in presence of Triton detergent. purified cruzain, Z-FR-AMC fluorescence, 0.01% Triton. P25779. AID 1478. hit rate 0.43% among 200,000. Potency, µM, for inactives: max response, negative = inhibition, usual class: inhibitors;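 further: plate controls were neutral wells for no effect and buffer without enzyme for full effect; nearly all actives have a fitted effect of over 40% in size; top concentration of the series not given in the record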
Target sequence (P25779 123-467 limits assumed): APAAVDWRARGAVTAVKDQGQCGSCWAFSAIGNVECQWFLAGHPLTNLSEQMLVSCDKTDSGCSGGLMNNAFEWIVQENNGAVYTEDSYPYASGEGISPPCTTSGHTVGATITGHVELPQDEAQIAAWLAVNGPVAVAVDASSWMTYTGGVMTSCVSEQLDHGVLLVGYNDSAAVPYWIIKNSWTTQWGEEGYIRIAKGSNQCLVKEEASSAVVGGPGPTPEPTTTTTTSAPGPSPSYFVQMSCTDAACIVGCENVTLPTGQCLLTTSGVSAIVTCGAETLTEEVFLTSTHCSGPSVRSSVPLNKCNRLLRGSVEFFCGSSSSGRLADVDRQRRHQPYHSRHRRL
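Compounds were screened in titration against cruzain (1.5 nM) with 0.01% Triton X-100 to counter colloidal aggregation. Activity was the AMC fluorescence increase over 60 s after adding 2 uM Z-FR-AMC at pH 5.5.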
MARV entry inh = Marburg virus entry inhibition. hit rate 1.8% among 300,000. Marburg virus pseudotyped entry inhibition, cell reporter; control for the full effect not named in the record; about a third of the inactives were read at about 46 µM. AID 540276. Potency, µM (series often up to 37.8 µM), without a hit: at the top dose activity change, negative = inhibition, most hits filed as inhibitors; active = well fitted inhibition curve with a large enough effect; inconclusive = small, poorly fitted or top-dose-only effect, or effect the other way; inactive = flat fitted curve, though single readings scatter; tested in HEK293 cells; about a fifth of its hits are not listed in these tables; further: on the % scale 0 is the no-effect control and ±100 the full control effect; luciferase read-out
RE007 growth inh = less growth of the S. pombe RE007 Vpr strain | S. pombe RE007 Vpr strain, BacTiter-Glo ATP luminescence, 24 h; control for the full effect not named in the record | Potency, µM (titrated, usually from 92.2 µM), for the others: top-dose activity change, negative = less growth | hit rate 0.21% among 360,000; active = well fitted falling curve with a large enough effect; inconclusive = small, poorly fitted or top-dose-only effect; inactive = no such curve, though single readings can be large or run the other way;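 further: on the % scale 0 is the no-effect control and ±100 the full control effect; nearly all actives have a fitted effect of over 50% in size; the assay follows cell death caused by Vpr and the record does not say whether a fall means rescue or toxicity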
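Fission yeast strain RE007, carrying one chromosomally integrated HIV-1 vpr copy, was seeded at OD 0.01 in PMG+AL medium with 23 nL pinned compound. After 24 h at 30 °C and 99% humidity, viability was read by BacTiter-Glo luminescence.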
StopGo reporter = lowers the luciferase signal of an FMDV 2A StopGo reporter | human cells with a luciferase reporter of 2A StopGo recoding; control for the full effect not named in the record | Potency, µM (doses to about 57.9 µM), for inactives: at the highest dose signal change, negative = less light | hit rate 1.2% among 410,000 | AID 1159524; active = well fitted falling curve with a large enough effect; inconclusive = small, poorly fitted or top-dose-only effect; inactive = no such curve, though single readings can be large or run the other way; tested in HEK293T cells; further: on the % scale 0 is the no-effect control and ±100 the full control effect; nearly all actives have a fitted effect of over 45% in size; luciferase light after 4 h
Lassa entry inh = inhibitors of Lassa virus binding or cell entry; Lassa virus pseudotype entry inhibition, cell reporter; control for the full effect not named in the record; Potency, µM (top dose mostly 37.9 µM), without a hit: at the highest dose activity change, negative = inhibition, actives largely listed as inhibitors; hit rate 1.2% among 300,000; active means well fitted inhibition curve with a large enough effect; inconclusive means small, poorly fitted or top-dose-only effect, or effect the other way; inactive means flat fitted curve, though single readings scatter; tested in HEK293 cells; further: on the % scale 0 is the no-effect control and ±100 the full control effect; nearly all actives have a fitted effect of over 50% in size; luciferase read-out
SARS PLpro yeast = inhibitors of SARS-CoV papain-like protease in yeast; S. cerevisiae expressing SARS-CoV PLpro, growth rescue; control for the full effect not named in the record; Potency, µM (top dose mostly 32.9 µM), for the others: top-dose activity, positive = growth rescue; hit rate 0.19% among 330,000; AID 485353; active means well fitted rising curve with a large enough effect; inconclusive means small, poorly fitted or top-dose-only effect; inactive means no such curve, though single readings can be large or run the other way; further: 0% is about no effect; nearly all actives have a fitted effect of over 55% in size; growth read by luminescence after 48 h
NS1 function inh = influenza NS1 inhibition; S. cerevisiae slowed by influenza A NS1, growth recovery by OD600; AID 2326; Potency, µM (doses to about 46.1 µM), without a hit: at the highest dose activity, positive = more growth; hit rate 0.4% among 270,000; active means well fitted rising curve with a large enough effect; inconclusive means small, poorly fitted or top-dose-only effect; inactive means no such curve, though single readings can be large or run the other way; further: nearly all actives have a fitted effect of over 50% in size
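In this qHTS, NS1 from influenza A is expressed in budding yeast, where it slows growth. Cells are switched from glucose to 2% galactose medium (pH 6.0, -URA), treated with compound, and growth recovery is read at OD600.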
Cruzain noTriton = inhibitors of Trypanosoma cruzi cruzain without detergent; P25779; purified cruzain, Z-FR-AMC fluorescence, no detergent; Potency, µM, without a hit: max response, negative = inhibition, actives largely listed as inhibitors; hit rate 2.3% among 200,000; AID 1476;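 further: plate controls were enzyme without inhibitor for no effect and buffer without enzyme for full effect; nearly all actives have a fitted effect of over 40% in size; top concentration of the series not given in the record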
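Detergent-free condition (0.00005% Triton X-100) in acetate buffer pH 5.5 with DTT. 1.5 nM enzyme and compound were pre-mixed 15 min, then 2 uM Z-FR-AMC substrate added; reaction progress from fluorescence change between first and third reads (60 s).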
* = called active by the depositor; ? = inconclusive; nt = no result given; & = joins results of further samples; [ ] = another dose, or the depositor's remark. Unless noted, the call rests on the fitted dose curve; in most records, active means well fitted curve in the direction sought with a large enough effect; inconclusive means small, poorly fitted or top-dose-only effect, or another doubt; inactive means no such curve, though single readings can be large; an effect the other way counts as inactive or inconclusive. Potency means the concentration at half of the fitted maximal effect. This is a random part of the collection. About 4.7% of those tested had a hit in this group.

SMILES	Cruzain Triton	MARV entry inh	RE007 growth inh	StopGo reporter	Lassa entry inh	SARS PLpro yeast	NS1 function inh	Cruzain noTriton
COC(=O)c1ccc(Cn2cnc3ccccc3c2=O)cc1	-1.4%	10%	14%	12%	6%	9%	-6%	2%
NC(N)=N/N=C/c1ccc(OCc2ccccc2)c(OCc2ccccc2)c1	nt	?	9%	28%	?	-1%	14%	nt
COc1ccc(C(=O)NNc2ccccc2)cc1	0.6%	?	75%	-7%	1%	1%	-3%	-10%
COc1ccc(OC)c(S(=O)(=O)Nc2ccc3oc(C)c(C(C)=O)c3c2)c1	nt	-6%[46.1 µM]	6%	11%	-5%	0%	5%	nt
COc1ccc(C)cc1NC(=O)CCN1CCN(C/C=C/c2ccccc2)CC1	nt	nt	13%	?	nt	-4%	-20%	nt
Oc1ccc2ccccc2c1CNc1ccccc1	nt	24%[46.1 µM]	-16%	-2%	?	nt	nt	nt
CCc1nc(SCC(=O)N2c3ccccc3CC2C)c2c(C)c(C)sc2n1 (stereo unspecified)	-2.6%	0.92µM*	-15%	nt	1.5µM*	0%	16%	-17%
CN(C)CCNC(=O)Cn1nc(C(F)F)cc1C1CC1	7.8%	-2%	12%	18%	8%[14.3 µM]	5%	-10%	8%
COC(=O)CN1C(=S)N(Cc2ccccc2)C(=O)C1CC(=O)Nc1ccc(OC)cc1 (stereo unspecified)	-6.5%	-9%	2%	-19%	12%	3%	7%	23%
CC(C)(C)OC(=O)NCCCCCc1nnc(SCc2ccc(F)cc2)o1	nt	?	-22%	?	-8%	-1%	-4%	nt
Nc1n[nH]c(CCCO)n1	-2.1%	16%	14%	-17%	0%	-12%	-4%	-4%
CCC(C)(C(=O)NC1CCCC1)N(C(=O)c1cnccn1)c1ccccc1 (stereo unspecified)	1.6%	nt	-1%	-23%	nt	6%	8%	-3%
N#C/C(=C(/O)CSc1ccccn1)c1nc2ccccc2s1	nt	nt	-6%	1%	nt	0%	17%	nt
COc1cc(C)ccc1OCCCOc1ccccc1Cl	-2.4%	18%	-19%	10%	?	-14%	-15%	3%
CC(Oc1ccccc1)C(=O)OCc1cc(=O)n2nc(C(C)C)sc2n1 (stereo unspecified)	0.0%	nt	nt	-17%	7%[46.1 µM]	nt	nt	4%
CC(C)C(=O)c1cn(CC(=O)NCc2ccc3c(c2)OCO3)c2ccccc12	-6.9%	9%	8%	1%	3%	16%	3%	-9%
COC(=O)c1ccc(OC)c(OC2CCCC2)c1	nt	nt	-22%	-9%	nt	0%	0%	nt
Cc1ccc(N(CC(=O)Nc2cccc(C)c2)S(=O)(=O)c2cccc3nonc23)cc1	2.3%	nt	nt	-10%	nt	-6%	7.1µM*	-15%
Cc1ccnc(NC(=O)c2ccc(S(=O)(=O)c3ccccc3)cc2)c1	nt	nt	267%	5%	nt	0%	-1%	nt
COC(=O)c1ccc(NC(=O)COc2ccc(C3C(C#N)=C(N)Oc4c3ccc3ccccc43)cc2OC)cc1 (stereo unspecified)	2.4%	-27%	4%	-6%	?	0%	?	7.9µM*

Reformatted in markdown: part of the list above
| molecule | Cruzain Triton | MARV entry inh | RE007 growth inh | StopGo reporter | Lassa entry inh | SARS PLpro yeast | NS1 function inh | Cruzain noTriton |
| --- | --- | --- | --- | --- | --- | --- | --- | --- |
| CC(C)(C)OC(=O)NCCCCCc1nnc(SCc2ccc(F)cc2)o1 | nt | ? | -22% | ? | -8% | -1% | -4% | nt |
| Nc1n[nH]c(CCCO)n1 | -2.1% | 16% | 14% | -17% | 0% | -12% | -4% | -4% |
| CCC(C)(C(=O)NC1CCCC1)N(C(=O)c1cnccn1)c1ccccc1 (stereo unspecified) | 1.6% | nt | -1% | -23% | nt | 6% | 8% | -3% |
| N#C/C(=C(/O)CSc1ccccn1)c1nc2ccccc2s1 | nt | nt | -6% | 1% | nt | 0% | 17% | nt |
| COc1cc(C)ccc1OCCCOc1ccccc1Cl | -2.4% | 18% | -19% | 10% | ? | -14% | -15% | 3% |

(further entries)
SMILES	Cruzain Triton	MARV entry inh	RE007 growth inh	StopGo reporter	Lassa entry inh	SARS PLpro yeast	NS1 function inh	Cruzain noTriton
CCN(CC)c1nc2c(s1)C(=O)NCCC2	-1.3%	17%	-22%	24%	24%	-4%	-6%	3%
CC1(C)CC(=O)C(C=NC2CCCCC2)=C(O)C1	0.9%	-6%	-12%	21%	15%	1%	0%	7%
O=c1cc(-c2c(O)c3ccccc3n(Cc3ccccc3)c2=O)[nH][nH]1	nt	-10%[46.1 µM]	3%	1%	-19%	7%	nt	nt
COc1cc2ncnc(NCc3ccccc3F)c2cc1OC	nt	nt	1%	-23%	nt	-1%	-2%	nt
Cc1c(C(=O)N2CCC3(CC2)OCCO3)oc2ccc(S(=O)(=O)N3CCOCC3)cc12	2.5%	-10%&-10%	-3%	7%	-1%	8%	-15%	7%
O=[n+]1c2c(n([O-])c3cc(F)c(F)cc31)CCCC2	-0.2%	8%	3%	-6%	5%	-9%	-1%	-4%
Cc1nc(-n2cc(F)c(=O)[nH]c2=O)c2nc(C)oc2n1	-1.8%	16%	-17%	5%	1%	3%	4%	-6%
Cc1sc2ncn(CC(=O)NCC3COc4ccccc4O3)c(=O)c2c1S(=O)(=O)N1CCCCC1 (stereo unspecified)	nt	-5%[46.1 µM]	2%	4%	23%	-1%	nt	nt
COc1ccc(CCNC(=O)C2CCN(S(=O)(=O)N3CC(C)CC(C)C3)CC2)cc1OC (stereo unspecified)	0.5%	?	-3%	nt	-17%	-2%	-1%	14%
CCOc1ccc(NC(=O)CN(C)CC(=O)Nc2ccccc2C#N)cc1OCC	0.0%	-10%	5%	-3%	12%	-4%	-12%	-5%
COc1cccc(-c2cc(C(=O)Nc3ccccc3SC)no2)c1	-2.9%	?	-14%	36%[activator]	-10%	-5%	1%	-8%
CCOC(=O)C1=C(COC(=O)CSc2ccc(Br)cc2)NC(=O)NC1C (stereo unspecified)	nt	-5%	-7%	-13%	3%	-6%	nt	nt
CNCCCCOc1ccccc1-c1ccccc1	-0.7%	7.1µM*	6%	-14%	?	0%	-3%	18%
CC(C)Cn1c(-c2ccncc2)n[nH]c1=S	nt	?	7%	-8%	-23%	-1%	4%	nt
CCCn1c(N)c(Sc2ccc(C)cc2)c(=O)n(CCC)c1=O	nt	?	0%	-13%	-1%[46.1 µM]	-1%	5%	nt
Cc1ccc(/C=N/N2C(=S)SC(C)(C)C2N(O)C(=O)Nc2ccc([N+](=O)[O-])cc2)cc1 (stereo unspecified)	-11%	?	-2%	-9%	-4%	-2%	-26%	0%
Cc1ccccc1NC(=O)COC(=O)c1n[nH]c(=O)c2ccccc12	nt	-1%	1%	3%	17%	-2%	nt	nt
Cc1ccc(/C=C/c2nc3ccccc3[nH]2)cc1	-7.4%	nt	nt	8.9µM*	2.2µM*	nt	nt	-18%
CCOc1ccc(S(=O)(=O)Oc2ccc3ccccc3c2)cc1	-7.7%	-7%	7%	-25%	-20%	-6%	-15%	6%
CCc1ccc(CNC(=O)C(=O)NCCc2ccc(OC)c(OC)c2)cc1	nt	0%[46.1 µM]	-17%	-23%	-15%	nt	nt	nt
CC(=O)NC1=NN(C(C)=O)C(C)(c2cccc([N+](=O)[O-])c2)S1 (stereo unspecified)	nt	-7%[46.1 µM]	-5%	-10%	-6%	-2%	nt	nt
CC(=O)Nc1ccc(S(=O)(=O)NNC(=O)COc2cccc3ccccc23)cc1	1.4%	?	-2%	?	-9%	-2%	12%	4%
COc1ccc(CNc2nc(-c3ccccc3)nn2S(=O)(=O)c2ccccc2)cc1	-0.4%	4%[46.1 µM]	nt	16%	-7%[46.1 µM]	nt	nt	-2%
COC(=O)c1ccc(/C=C/C(=O)OCC(=O)c2ccc[nH]2)cc1	nt	-5%[46.1 µM]	9%	10%	26%[46.1 µM]	-4%	nt	nt
OCCCNC(=S)Nc1ccc(Nc2ccccc2)cc1	nt	?	-7%	9%	?	-1%	6%	nt
CCc1c(C(=O)OC)nnc2cc(C)nn12	4.8%	-4%	0%	-5%	0%	-3%	7%	6%
CCOc1cc(-n2ncc(C#N)c2N)nc(SC)n1	-0.4%	?	-12%[3.69 µM]	-6%	-5%	13%	9%	-19%
CNC(=S)N1CCc2cc(OC)c(OC)cc2C1COc1ccc(OC)cc1 (stereo unspecified)	nt	?	5%	3%	?	2%	nt	nt
CC1CCCN(S(=O)(=O)c2ccc(NC(=O)CCN3C(=O)c4ccccc4C3=O)cc2)C1 (stereo unspecified)	4.0%	?	0%	0%	2%	-5%	-4%	9%
CCCNC(=O)c1ccc(SCC(=O)N(CC)CC)c([N+](=O)[O-])c1	nt	-6%	3%	17%	14%	3%	nt	nt
O=C(NCc1cccc(F)c1)c1ccccc1NC(=O)c1nsc2ccccc12	0.8%	nt	nt	0%	-29%[46.1 µM]	nt	nt	?
CCC(C)(C(=O)NC1CCCCC1)N(Cc1ccco1)C(=O)c1cnccn1 (stereo unspecified)	1.6%	?	-7%	10%	-2%	1%	0%	10%
O=C(C1CC1(c1ccccc1)c1ccccc1)N1CCOCC1 (stereo unspecified)	4.7%	-6%	-2%	1%	6%	-4%	-1%	2%
CN1c2ccccc2C(O)=C(C(=S)Nc2ccc(Cl)cc2)S1(=O)=O	-15%	-6%	?	0%	-12%	-27%	-38%	-7%
O=C(Cn1c(=O)n(Cc2ccc3c(c2)OCO3)c(=O)c2ccc(C(=O)NC3CCCCC3)cc21)Nc1ccccc1F	-0.3%	9%[46.1 µM]	nt	67%[activator]	-5%[46.1 µM]	nt	nt	13µM*
COc1ccc(C)cc1N(CC(=O)N1CCCC1)S(=O)(=O)c1ccccc1	nt	4%[46.1 µM]	-8%	-3%	-4%[46.1 µM]	5%	0%	nt
